# High-throughput results from PubChem.
# RecA intein inh: blocks M. tuberculosis RecA intein splicing. P9WHJ3. AID 2221. inhibition, %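 (about 9 µM by stock and volumes)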. hit rate 0.75% among 290,000. cell-free RecA intein splicing, fluorescence; in the data active = inhibition above about 30%; inconclusive = no clear call, values can overlap the other calls;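 note: 0% = vehicle wells and 100% = reference inhibitor control wells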
# Target sequence (P9WHJ3 whole entry, looked up): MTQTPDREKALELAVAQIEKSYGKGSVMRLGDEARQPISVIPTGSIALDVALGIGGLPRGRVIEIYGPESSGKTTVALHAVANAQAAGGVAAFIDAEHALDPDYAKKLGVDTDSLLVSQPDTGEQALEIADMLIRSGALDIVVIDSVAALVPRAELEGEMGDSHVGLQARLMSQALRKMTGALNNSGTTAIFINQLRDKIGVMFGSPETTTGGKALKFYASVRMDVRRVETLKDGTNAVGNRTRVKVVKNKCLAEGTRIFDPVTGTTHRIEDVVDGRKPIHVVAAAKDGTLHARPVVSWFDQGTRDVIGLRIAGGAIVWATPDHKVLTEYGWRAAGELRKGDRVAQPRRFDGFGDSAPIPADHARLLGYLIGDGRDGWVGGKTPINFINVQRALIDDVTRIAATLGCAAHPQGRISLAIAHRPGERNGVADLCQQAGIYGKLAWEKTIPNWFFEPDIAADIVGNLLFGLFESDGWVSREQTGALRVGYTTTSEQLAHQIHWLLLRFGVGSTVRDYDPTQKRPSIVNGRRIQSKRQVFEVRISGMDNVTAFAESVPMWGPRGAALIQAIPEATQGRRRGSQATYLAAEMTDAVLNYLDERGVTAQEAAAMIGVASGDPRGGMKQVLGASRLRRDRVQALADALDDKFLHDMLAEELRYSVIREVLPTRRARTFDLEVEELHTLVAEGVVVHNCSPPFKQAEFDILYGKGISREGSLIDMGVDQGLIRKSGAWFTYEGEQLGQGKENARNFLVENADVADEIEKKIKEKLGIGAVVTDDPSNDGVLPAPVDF
# Mtb growth: M. tuberculosis H37Rv growth inhibitors, H37Rv strain (AID 1626). M. tuberculosis H37Rv growth inhibition; higher % means a stronger effect. hit rate 0.95% among 220,000. inhibition, % at 10 µM, or IC50 in µM where a hit was titrated;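 active = confirmed in a dose series; inconclusive = inhibition above 80% but not taken into the dose series; inactive = below 80% or under 30% at every dose of the series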;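 note: bacteria incubated seven days before Alamar blue readout; 0% = bacteria only wells and 100% = bacteria with antibiotic wells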
# Arbovirus anti: arbovirus infection inhibition | arbovirus infection cell-based antiviral screen | inhibition, % at 10 µM | hit rate 0.37% among 200,000;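 active = inhibition from about 30%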;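 note: bluetongue infection of BSR cells; cell survival read as ATP light after 72 h; 0% = infected wells without compound and 100% = uninfected wells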
# Mtb bLac sens: beta-lactam sensitization of Mtb H37Rv; M. tuberculosis H37Rv growth with meropenem, percent inhibition; hits of this screen are not shown here; inhibition, % at 25 µM; hit rate 0.27% among 330,000; AID 434955;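 active = about 74% or more and at least 40 points above the plate without the antibiotic, then above 30% in a dose series; inconclusive = first-round hits that could not be retested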;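 note: growth measured after seven days incubation then overnight dye step; 0% = bacteria only wells and 100% = bacteria with antibiotic; twin plates without the antibiotic show which effects depend on it; some results filed as inactive read as strong as hits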
# YopH inh: inhibitors of Yersinia enterocolitica YopH tyrosine phosphatase; fluorescence Ex485/Em525; inhibition, %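 (about 10 µM by stock and volumes)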; hit rate 0.16% among 140,000; AID 898;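 active = inhibition of 50% or more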;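 note: controls were vehicle for no effect and minimum signal wells for full effect; inactives centre near -20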
# Arbovirus anti repeat: also measured in Arbovirus anti; calls as there; inhibition, %; measured here: 10K subset replicate screen; many hits read low in the repeat;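 first of two repeat runs on a subset; 0% = infected and 100% = uninfected wells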
# * = called active by the depositor; ? = inconclusive; · = no result given; & = joins results of further samples.
SMILES,RecA intein inh,Mtb growth,Arbovirus anti,Mtb bLac sens,YopH inh,others
O=C(CN1C(=O)C2C3CCC(C3)C2C1=O)Oc1ccc2ccccc2c1 (stereo not given),1.3,>100µM*,9,85,-29,
O=[N+]([O-])c1ccc2c(c1)OCCOCCOCCOCCOCCOCCO2,·,-2%,1,-2,-24,
Cc1ccccc1CN1CCCNC1=O,0.4,5%,6,·,-15,
CC12CCC(C(=O)NNc3ccccc3)(OC1=O)C2(C)C (stereo not given),-11,?,-24,91,·,
COC(=O)c1ccc(NC(=S)NC2c3ccccc3CC2O)cc1 (stereo not given),5.9,-1%,7,-3,·,
Cc1ccc(NC(=O)CNc2ccc(OC(C)C)cc2)cc1,0.4,68%,-3,95,9,
Cc1nc2ccccn2c1-c1ccnc(SCc2ccc(Cl)cc2)n1,3.5,16%,·,32,·,
CCN(CC)CCN(Cc1cc2cc3c(cc2[nH]c1=O)OCCO3)C(=S)NCC1CCCO1 (stereo not given),1.9,-11%,-3,-3,·,
Cc1cc(NC(=O)CCCN2C(=O)c3cccnc3C2=O)ccc1Br,·,-13%,3,-3,·,
COc1ccc(NC(=O)c2ccccc2C)c(OC)c1,-3.0,-9%,-1,10,-46,
COc1cccc(C2CC(=O)Nc3n[nH]c(-c4ccccc4)c32)c1OC (stereo not given),-3.1,-3%,·,4,·,
CC(C)OC(=O)CSc1ncnc2c1cnn2Cc1ccccc1,5.4,8.2µM*,-3,99,-57,
Cc1cccc(-c2noc(CCCC(=O)N3CCOCC3)n2)c1,0.9,-1%,2,-12,-15,
Cc1cccc(N2CCN(C(=O)/C=C/c3cccs3)CC2)c1C,12,6%,-1,61,0,
Cn1cc(CN2CCN(c3ncccn3)CC2)c(-c2cccc(Cl)c2)n1,0.9,1%,14,6,·,
COc1ccc(OC)c(CCNC(=O)CCCc2nnc3n(C)c(=O)c4sccc4n23)c1,0.1,·,·,-4,·,
CC(C)(C)n1nc2c(c1NC(=O)Cc1cccs1)CSC2,0.0,1%,14,-11,-34,Arbovirus anti repeat=5
Cc1ccc(S(=O)(=O)CCC(=O)Nc2cccc(C)c2)cc1,4.3,8%,0,5,-33,
O=S(=O)(c1ccc(F)cc1)N1CC=C(c2ccccc2)CC1,3.7,-3%,·,-2,·,
CCC(=O)N1CCN=C1SCc1cccc(C(F)(F)F)c1,8.1,·,·,4,·,
COc1ccc(NC(=O)CSc2nc(SC)ns2)cc1,6.6,·,·,100,·,
CCC(C)NC(=O)CSc1nnc(-c2c[nH]c3ccccc23)o1 (stereo not given),0.6,4%,5,3,·,
c1ccc2[nH]c(NN=C3CCCCCC3)nc2c1,0.1,6%,2,-6,·,
COc1cc(/C=C(\C#N)C(=O)Nc2cccnc2)ccc1OC(C)C,·,·,-3,-3,-30,
CCc1ccccc1N(CC(=O)NC1CCCCC1)C(=O)CCCC(=O)Nc1ccccn1,0.8,·,·,-6,·,
Cc1ccc(C(=O)NC(=S)/C=C2\N(C)c3ccccc3C2(C)C)cc1,-0.9,58%,9,10,-17,
COc1ccccc1N1C(=O)NC(=O)/C(=C/c2ccc3c(c2)Cc2ccccc2-3)C1=O,1.1,-3%,0,7,-34,
O=C(N/N=C/c1cccs1)C1CC(=O)N(c2ccccc2)C1 (stereo not given),-0.2,-3%,-2,-2,3,
Cc1ccc(N2C(=O)CCC(C(=O)O)C2c2cccs2)cc1 (stereo not given),-1.0,·,·,-6,·,
O=C(Nc1ccc(Cl)cc1)N(Cc1cccs1)Cc1cccs1,2.8,11%,11,-1,28,Arbovirus anti repeat=4

# Taken from the results shown for reference:
SMILES,RecA intein inh,Mtb growth,Arbovirus anti,Mtb bLac sens,YopH inh,others
Cc1ccc(C(=O)NC(=S)/C=C2\N(C)c3ccccc3C2(C)C)cc1,-0.9,58%,9,10,-17,
COc1ccccc1N1C(=O)NC(=O)/C(=C/c2ccc3c(c2)Cc2ccccc2-3)C1=O,1.1,-3%,0,7,-34,
O=C(N/N=C/c1cccs1)C1CC(=O)N(c2ccccc2)C1 (stereo not given),-0.2,-3%,-2,-2,3,
Cc1ccc(N2C(=O)CCC(C(=O)O)C2c2cccs2)cc1 (stereo not given),-1.0,·,·,-6,·,
O=C(Nc1ccc(Cl)cc1)N(Cc1cccs1)Cc1cccs1,2.8,11%,11,-1,28,Arbovirus anti repeat=4

# Remaining list, next part.
SMILES,RecA intein inh,Mtb growth,Arbovirus anti,Mtb bLac sens,YopH inh,others
O=C(CN1CCOCC1)Nc1ccccc1Sc1ccccc1,0.7,-2%,2,-1,-14,
COc1ccc(CNC(=O)C/C(C)=N/NC(=O)C23CC4CC(CC(C4)C2)C3)cc1,-0.9,-3%,1,4,·,
COC(=O)c1c(NC(=O)c2ccc(C)c(S(=O)(=O)Nc3ccccc3C)c2)sc2c1CCCC2,4.4,9%,-27,-15,-37,
CC(C)Cc1ccc(CN2CCCC(NC(=O)c3cnc4ccccn4c3=O)C2)cc1 (stereo not given),0.3,·,·,56,·,
CCN(CC)CCNC(=O)c1ccc(NC(=O)Cc2ccsc2)cc1,2.2,·,·,-2,·,
COc1cc(C)c(S(=O)(=O)N2CCCC2)cc1C(C)C,2.7,0%,1,2,·,
Cc1noc(C)c1C(=O)N(CC(C)C)c1nc2ccccc2s1,0.5,·,·,3,·,
Cn1c(=O)oc2cc(S(=O)(=O)N3CCc4ccccc4C3)ccc21,-0.1,-1%,-1,-4,-7,Arbovirus anti repeat=0
CCCCC1=CC2=C(c3ccco3)C(=O)C(C)(OC(=O)c3ccc(OC)cc3)C(=O)C2=CN1CCCN(CC)CC (stereo not given),0.8,-5%,·,1,·,
O=c1[nH]nc(SCCS(=O)(=O)c2ccc(F)cc2)n1-c1ccc2c(c1)OCCO2,0.0,-5%,·,-4,·,
O=[N+]([O-])c1cc(F)c(N2CCCCC2)cc1Br,2.5,0%,·,-6,·,
Cc1ccc(COC(=O)c2nn(C)c(=O)c3ccccc23)cc1,5.0,-4%,-1,-11,·,
C=CCC(CC)C(=O)NC(=O)N1CCCc2ccccc21 (stereo not given),-0.7,7%,·,2,·,
O=C(c1cn(-c2ccccc2)nc1-c1cccs1)N1CCN(c2ccc(F)cc2)CC1,·,31%,3,68,3,
O=C(CN1CCCCC1)Nc1ccccc1Oc1ccccc1,0.5,2%,·,2,·,
Cc1ccccc1NC(=O)NCCCN1CCN(c2ccccc2)CC1,-0.1,-5%,8,-8,-7,
COC(=O)c1ccc(N2CCN(C)CC2)c(NC(=O)COc2ccc(C)cc2)c1,4.0,·,·,?,·,
COc1ccc(C2c3c(ncn(Cc4ccco4)c3=N)Oc3ccc4ccccc4c32)cc1 (stereo not given),29,39%,-27,75,-27,
O=C(Nc1cccc(Cl)c1Cl)c1ccccc1OCC(=O)N1CCOCC1,-0.5,·,·,?,·,
CCOc1cc(C(N)=O)cc(OCC)c1OCC,0.4,-5%,5,-14,-27,

# In the list so far, these contain two or more sulfur atoms:
SMILES,RecA intein inh,Mtb growth,Arbovirus anti,Mtb bLac sens,YopH inh,others
CC(C)(C)n1nc2c(c1NC(=O)Cc1cccs1)CSC2,0.0,1%,14,-11,-34,Arbovirus anti repeat=5
COc1ccc(NC(=O)CSc2nc(SC)ns2)cc1,6.6,·,·,100,·,
O=C(Nc1ccc(Cl)cc1)N(Cc1cccs1)Cc1cccs1,2.8,11%,11,-1,28,Arbovirus anti repeat=4
COC(=O)c1c(NC(=O)c2ccc(C)c(S(=O)(=O)Nc3ccccc3C)c2)sc2c1CCCC2,4.4,9%,-27,-15,-37,
O=c1[nH]nc(SCCS(=O)(=O)c2ccc(F)cc2)n1-c1ccc2c(c1)OCCO2,0.0,-5%,·,-4,·,

# More results follow.
SMILES,RecA intein inh,Mtb growth,Arbovirus anti,Mtb bLac sens,YopH inh,others
Cc1ccc(NC(=O)CCc2c(C)[nH]c(=O)c(C#N)c2C)cc1,-0.8,·,·,-5,·,
Cc1ccc2c(c1)[C@@H]1CN(C)CC[C@@H]1N2S(=O)(=O)c1ccc([N+](=O)[O-])cc1,-0.8,-13%,-5,-3,-3,
COc1ccc2ccccc2c1CN(C)Cc1ccccc1,0.8,·,·,-9,·,
CCOC(=O)C1CCN(CC(O)COc2ccc(C(C)(C)CC)cc2)CC1 (stereo not given),·,2%,-3,96,-6,Arbovirus anti repeat=4
COC(=O)C(O)(c1ccc(N(C)C)cc1)C(F)(F)F (stereo not given),0.4,-4%,15,8,·,
O=C(COc1ccc(Cl)cc1Cl)NN=C1CCCCC1,0.8,-5%,-3,-4,-22,
O=C(/C=C/c1ccccc1)NC(NC(=S)Nc1ccc(C(=O)O)cc1)C(Cl)(Cl)Cl (stereo not given),3.8,-1%,-1,8,-2,
O=C(NNc1nc2cc3c(cc2s1)OCCO3)c1ccccc1,-6.4,49%,-14,0,·,
O=C(c1cccc(F)c1)N1C2C=CC(C2)C1(C(F)(F)F)C(F)(F)F (stereo not given),-5.3,-10%,0,-1,-17,
O=C(NCc1ccccn1)C(=O)NN=C1CCCCCCC1,-3.6,4%,2,1,·,
Cc1ccc2c(c1)N(Cc1ccc([N+](=O)[O-])cc1)C=NS2(=O)=O,-0.5,·,·,-2,·,
CN1C(=O)[C@@H]2[C@@H]3C[C@@H]([C@H]4ON=C(c5ccc(Cl)cc5Cl)[C@@H]34)[C@@H]2C1=O,-5.4,1%,2,1,-18,
COc1cc2[nH]c(=O)n(CCC(=O)NCCCN3CCN(c4ccccc4F)CC3)c(=O)c2cc1OC,-0.9,-2%,3,3,·,
Cc1ccc(C(=O)N/N=C/c2ccc(-c3ccccc3[N+](=O)[O-])o2)cn1,61*,0%,-5,1,-27,
CCC(=O)Nc1nc2ccccc2n1Cc1ccc(C)cc1,-3.5,1.4µM*,-24,99,-56,
CC1=C(C)CC2C(=O)N(Cc3ccccc3)C(=O)C2C1 (stereo not given),-0.5,-11%,-3,4,-12,
CCC(C(=O)NC(C)(C)C)N(Cc1ccc(F)cc1)C(=O)c1snc(C(N)=O)c1N (stereo not given),-1.9,·,·,2,·,
COC(=O)Nc1ccc2c(c1)N(C(=O)CCN1CCN3CCCC3C1)c1ccccc1CC2 (stereo not given),0.8,0%,-2&-3,-6&5,-21,
CCOc1ccc(C(=O)Nc2nncs2)cc1OCC,2.3,4%,0,8,-35,
COc1ccc(Cc2nnc(NCCO)[nH]c2=O)cc1,-1.1,·,·,-1,·,
CC1CCCCN1CCNC(=O)C1CCN(S(=O)(=O)c2cccc3cccnc23)CC1 (stereo not given),0.7,-7%,-2,2,-29,Arbovirus anti repeat=8
COc1cccc(CNC(=O)C2CSC3(C)CCC(=O)N23)c1 (stereo not given),-3.2,·,·,-16,·,
COC(=O)c1ccc(Oc2ccc(S(=O)(=O)N3CCCCC3)cc2N)cc1,3.3,·,·,3,·,
Cc1nn(-c2ccccc2)c2c1C(O)CC(C)(C)C2 (stereo not given),-1.0,·,·,5,·,
CCc1cc2c(=O)c(-c3nc4ccccc4n3C)c(C)oc2c(CN(CC)CC)c1O,-1.2,-7%,3,-14,-23,
O=C(O)c1sc2cc(Cl)ccc2c1Cl,1.4,-9%,·,-9,·,
CC(C(=O)NC1CCCCCC1)c1ccc([N+](=O)[O-])cc1 (stereo not given),2.1,·,·,-6,·,
Cn1c(CNc2ccc(F)cc2)nnc1SCC(=O)NNC(=O)Cc1ccccc1,-4.1,0%,0,-6,·,
O=c1cnnc(N/N=C/c2c[nH]c3ccccc23)[nH]1,-1.1,3%,17,2,·,
Cc1nonc1NC(=O)OC1CCCCC1,3.0,2%,1,-7,-2,

# Next part; it opens with the 2 that closed the last part.
SMILES,RecA intein inh,Mtb growth,Arbovirus anti,Mtb bLac sens,YopH inh,others
O=c1cnnc(N/N=C/c2c[nH]c3ccccc23)[nH]1,-1.1,3%,17,2,·,
Cc1nonc1NC(=O)OC1CCCCC1,3.0,2%,1,-7,-2,
COC(=O)C1=C(c2cccc(OC)c2OC)C[C@@H]2CC[C@H]1N2C(=O)NCCCOC(C)C,-1.6,-5%,·,1,·,
O=C(CC1OC(=O)c2ccccc21)c1ccco1 (stereo not given),-0.8,-3%,-3,5,-15,
O=C(Nc1nnc(C2CCCCC2)s1)c1ccco1,-0.4,-7%,10,9,-42,
OCCNc1cnc2ccccc2n1,-1.9,-2%,5,-6,·,
COc1ccc(CC(=O)N/N=C\c2cc(Br)c(O)c(Br)c2)cc1,1.9,·,·,0,·,
Cc1[nH]c(=O)nc(SCc2cccc(Cl)c2)c1C#N,5.3,·,·,0,·,
COc1cc2nc(C3CCC3)n(NC(=O)COc3ccccc3)c(=O)c2cc1OC,-1.7,-9%,-7,-6,-10,

# An excerpt. The share of hits here may be higher or lower than overall.
